From PubChem
GIV-Gai inh = inhibitors of GIV GBA-motif binding to rat Galpha-i3; Galpha-i3/FITC-GIV peptide fluorescence polarization, 90 min; hits give low values; scaled: aluminum fluoride 0%, vehicle 100%; AID 1224905; percent of control (FP), % (test concentration not listed); P08753; 210,000 tested, 0.42% active;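 active = replicate mean at 85% of control or lower, very high polarization wells dropped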;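 note: wells of about 15 µL received 100 nL stock; the first replicate is given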
Target sequence (P08753 whole entry, looked up): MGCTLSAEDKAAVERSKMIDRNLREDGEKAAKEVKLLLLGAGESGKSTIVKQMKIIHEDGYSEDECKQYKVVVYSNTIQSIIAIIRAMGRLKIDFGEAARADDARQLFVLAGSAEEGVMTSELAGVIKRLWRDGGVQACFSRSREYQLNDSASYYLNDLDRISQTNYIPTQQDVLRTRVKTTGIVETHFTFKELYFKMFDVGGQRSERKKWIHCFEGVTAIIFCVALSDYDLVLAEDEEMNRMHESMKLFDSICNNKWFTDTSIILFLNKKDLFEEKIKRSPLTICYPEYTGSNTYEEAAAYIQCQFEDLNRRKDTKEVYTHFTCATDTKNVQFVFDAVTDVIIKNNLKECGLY
Sa growth inh = S. aureus growth inhibition. S. aureus RN4220 growth, OD600, 20 h, 42 °C; hits give low values. AID 720641. 170,000 tested, 0.53% active. relative growth, % (no concentration beside the values);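 active = growth at 42 °C up to 50% and 20 or more points under that at 30 °C, or under 10% at both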;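 note: 300 nL library stock went into each well; scaled to the means of positive and negative controls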
HCMV UL50-53 inh = inhibitors of HCMV UL50-UL53 nuclear egress complex interaction; 190,000 tested, 0.15% active; inhibition, % (test concentration not listed); HTRF UL50-UL53 interaction, normalized percent inhibition;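 active = both replicates at 50% or more, plus weaker picks with an unusually low signal ratio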;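 note: stock transfer was 100 nL into about 20 µL; 0% = negative control wells and 100% = wells with untagged competitor protein; inactives centre near -12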
Sa growth inh second temp = second read-out of Sa growth inh, no call of its own (marks repeat the call); relative growth, %; measured here: growth at 30 °C;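 optical density after 20 h as mean of two plates; 100% = untreated growth and lower means inhibition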
Starred values were filed as active, the others as inactive; . = no result given; & = joins results of further samples.

SMILES	GIV-Gai inh	Sa growth inh	Sa growth inh second temp	HCMV UL50-53 inh
O=C(CSc1oc(-c2ccccc2)nc1S(=O)(=O)c1ccc(Cl)cc1)c1ccccc1	101	91	93	-2
COc1cc(C(=O)OCCCN2CCCN(CCCOC(=O)c3cc(OC)c(OC)c(OC)c3)CC2)cc(OC)c1OC	105&104	99	90	-22&0&4&-63&-25
CCOc1ccc(-n2c(C)nc3cc(C(=O)NCCN4CCOCC4)ccc32)cc1	102	84	62	-22
NC(=O)c1cc(SC(F)(F)F)cc(SC(F)(F)F)c1	.	95	100	4
COc1ccc(-n2nc(C(=O)N(C)C)nc2-c2ccccc2)cc1	105	62	97	24
c1csc(-c2nc(SCC3COc4ccccc4O3)n[nH]2)c1 (configuration not stated)	.	72	83	-3
Cc1ccc2oc3c(c(=O)c2c1)C(c1ccc(F)cc1)N(c1nc(C)c(C)s1)C3=O (configuration not stated)	101	93	102	29
N#CC1=C(N)SC(N)=C(C#N)C1c1ccc(O)cc1	-74*	88	54	-41
Cc1ccc(C)c(SC(C(=O)NC(N)=O)C(C)C)c1 (configuration not stated)	.	97	98	-7
Cc1cccc(CN2CCN(CC(=O)N3CCN(c4cccc(C)c4)C(C)C3)C2=O)c1 (configuration not stated)	108	115	84	-13
CC1(C)CC(=O)C2=C(C1)OC(N)=C(C#N)C2c1ccc(-c2cc([N+](=O)[O-])ccc2Cl)o1 (configuration not stated)	100	.	.	-3
COc1ccc(CCn2c(SCc3cc(C)on3)nc3sc4c(c3c2=O)CCCC4)cc1OC	.	88	93	-9
O=C1CCCC2=C1C(c1ccc3c(c1)OCO3)c1c(ccc3ncccc13)N2 (configuration not stated)	97	97	97	-19
Cc1sc(NC(=O)c2ccco2)c(C(c2cccnc2)N2CCCC2)c1C (configuration not stated)	99	87	71	.
CCn1cc(C(=O)NC2CCCC(C)C2C)c2cc(OC)c(OC)cc2c1=O (configuration not stated)	95	112	85	.
O=C(c1cccs1)N1CCCC(c2nc3c(nnn3Cc3ccc(F)cc3)c(=O)[nH]2)C1 (configuration not stated)	104	89	58	2
O=C(OCc1ccc(Cl)cc1)c1cnn2c(C(F)(F)F)cc(-c3ccccc3)nc12	105	.	.	-28
O=C(NCC(c1ccc2c(c1)OCO2)N1CCOCC1)c1c(F)cccc1F (configuration not stated)	99	101	95	.
O=C(Nc1ccc(Br)cc1)N1CCC(n2cnc3cccnc32)CC1	100	.	.	3
Cc1nonc1NC(=O)c1ccc(F)cc1	99	.	.	-9
NC(=O)C12CCC(CC1)C2	.	83	83	-24
N#Cc1cc(-c2ccc(Cl)cc2)no1	98	103	84	-17
CCc1ccccc1NC(=O)N1CCc2nc(-c3ccc(OC)cc3)sc2C1	101	.	.	-18
COc1ccc(-n2c(=O)c3ccccc3n(CC(=O)NCCc3ccc(OC)c(OC)c3)c2=O)cc1	103	107	95	-5
O=C(c1cc2ccccc2cc1OCc1nnc(-c2cccs2)o1)N1CCOCC1	.	102	75	-15
COC(=O)C(C)N1C(=O)S/C(=C/c2ccc(N3CCCCCC3)o2)C1=O (configuration not stated)	-15*	95	68	-47
Cc1ccc2cccc(SCc3ccc(Br)cc3)c2n1	.	100	87	-4
CCn1c(N)nc2ccccc21	.	114	82	-20
COc1ccc(/C=C2\SC(=O)N(CCNC(=O)c3nn(C)c(=O)c4ccccc34)C2=O)cc1	.	90	91	-42
CCC(=O)N1CCc2cc(S(=O)(=O)Nc3ccccc3OC)ccc21	102	103	89	-16
CCn1c(SCc2ccccc2OC)nc2cc(S(N)(=O)=O)ccc21	.	100	81	-3
CN(C=O)CP(=O)(O)CN1CCOCC1	100	86	82	-26
CC(=O)n1cc(-c2ccncc2)c2ccccc21	101	95	66	.
CNC(=O)CN1C(=O)c2cccnc2Sc2ccccc21	105	82	97	.
COc1ccc(OC)c(NC(=O)c2oc3ccccc3c2NC(=O)CC(C)(C)C)c1	101	98	92	-24
Cc1ccc(NC(=S)NCCN(C2CCCCC2)C2CCCC2)cc1	100	124	79	.
CCOC(=O)c1c(NC(=O)CCCOc2ccc(C(C)(C)C)cc2)sc2c1CCC2	100	100	88	-21
COc1ccc(CCC(=O)NCc2nc3cccnc3n2Cc2ccccc2)cc1	111	114	84	.
Cc1cc(=O)oc2ccc(OC(=O)CC(C)C)cc12	103	101	102	-9
Cc1ccc(C(=O)c2cc(C)sc2NC(=O)CN2CCN(C(=O)c3ccco3)CC2)cc1	104	77	88	-7
COc1ccc(N2C(=O)CC(NCCc3c[nH]c4ccc(Cl)cc34)C2=O)cc1 (configuration not stated)	102	.	.	-16
CCOC(=O)c1ccc(NC(=O)C2CCN(c3nnc(-n4cccc4)s3)CC2)cc1	99	97	82	1
Cc1cc(C)nc(-n2nc(C)c3c2N(C)C(=O)CC3c2ccc(F)cc2)n1 (configuration not stated)	102	.	.	-8
COc1cc(/C=C2\C(=O)NC(=S)N(c3ccc(C(C)C)cc3)C2=O)ccc1OCC(=O)O	107	.	.	-26
CCOc1ccc(Oc2ccc(N)cc2)cc1	.	87	96	5
Cc1ccc(C(=O)CC2OC(=O)c3ccccc32)o1 (configuration not stated)	100	75	77	-34
Cc1ccc(N(C)S(=O)(=O)c2cn(C)cn2)cc1	105	.	.	-15
CC1=CC(C)(C)N(C(=O)CSc2nc3ccccc3o2)c2ccccc21	107	.	.	-24
CN(Cc1ccccc1)C1CCN(CCc2ccccc2)CC1	101	91	106	-13
Cc1cccc(-c2nn3c(=O)cc(N4CCN(C(=O)Nc5ccc6c(c5)OCO6)CC4)nc3s2)c1	102	.	.	24
CCOC(=O)C1Sc2nnc(C)n2NC1c1ccc2c(c1)OCO2 (configuration not stated)	96	99	84	-39
N/C(CCN1CCOCC1)=N/O	111	97	98	-8
CC(C)(CO)NC(=O)c1cc(-c2ccc(Cl)cc2Cl)on1	104	81	62	6
CCOc1ccc2c(c1)cc(C(=O)NC)n2C	97	.	.	-7
Clc1cccc(CNCc2cccs2)c1	108	58	89	.
COc1ccc(Oc2nccnc2C#N)cc1	106	88	82	-138
O=C(NCc1ccccc1)NC1(C(=O)NCC2CCCO2)CCCCC1 (configuration not stated)	106	129	87	-6
Cc1cccc2c1-c1sc(C(=O)N3CCN(c4ccc(Cl)cc4)CC3)cc1CO2	103	103	94	.
COc1cc(NC(=O)Cn2c(=O)n(CC3CCCO3)c(=O)c3cc(OC)c(OC)cc32)cc(OC)c1 (configuration not stated)	104	108	85	-25
Cc1oc2ncn(CC(=O)NC3CC3)c(=O)c2c1C	101	.	.	-17

Entries shown so far that contain a cyano group:
SMILES	GIV-Gai inh	Sa growth inh	Sa growth inh second temp	HCMV UL50-53 inh
N#CC1=C(N)SC(N)=C(C#N)C1c1ccc(O)cc1	-74*	88	54	-41
CC1(C)CC(=O)C2=C(C1)OC(N)=C(C#N)C2c1ccc(-c2cc([N+](=O)[O-])ccc2Cl)o1 (configuration not stated)	100	.	.	-3
N#Cc1cc(-c2ccc(Cl)cc2)no1	98	103	84	-17
COc1ccc(Oc2nccnc2C#N)cc1	106	88	82	-138

Later entries:
SMILES	GIV-Gai inh	Sa growth inh	Sa growth inh second temp	HCMV UL50-53 inh
S=c1[nH]nc(NNc2ccccc2)n1Nc1ccccc1	107	101	81	-24
O=C(C1CCN(S(=O)(=O)c2ccc(Br)s2)CC1)N1CCN(c2ccc(F)cc2)CC1	105	97	84	-12
COc1ccc(N(C)C(=O)Cc2c(C(=O)O)[nH]c3ccccc23)cc1	99	116	85	.
CN1CCN(CCCNC(=O)Cn2ncc3c4ccccc4n(Cc4ccccc4F)c3c2=O)CC1	101	84	81	-1
Cc1cc(C)nc(NS(=O)(=O)c2ccc(NC(=O)CN3C(=O)C4CC=CCC4C3=O)cc2)n1 (configuration not stated)	.	99	95	-3
Clc1cccc(Cl)c1CN(Cc1ccccc1)c1ncnc2nc[nH]c12	.	105	87	-6
COc1ccc(-c2nc(CN3CCC(C(=O)NCc4ccc(Cl)cc4)CC3)c(C)o2)cc1OC	112	.	.	-4
CCOCCCNC(=O)c1cnc2sc(N3CCCCC3)nn2c1=O	101	85	87	.
CCc1c(C)sc(NC(=O)c2cc(CC(C)C)on2)c1C#N	100	86	83	-11
Cc1ccc(SC(=O)c2ccno2)cc1	106	72	54	-1
COc1ccc(S(=O)(=O)N(CCc2ccccc2)CC(=O)Nc2cc(Cl)ccc2C)cc1	106	107	91	-13
CCc1ccc(NS(=O)(=O)c2cc(Br)cnc2N)cc1	100	80	88	-24
O=S(=O)(c1cnc[nH]1)N1CCc2ccccc21	205	142	0	-46
COc1cc(C)c(C)cc1S(=O)(=O)N1CCc2cc3cc(C)ccc3nc21	106	.	.	-11
O=C(COC(=O)c1ccco1)Nc1ccc(Br)cc1	.	100	95	-3
CCCCc1nc2sc3c(Cl)ncnc3c2c2c1COC(C)(C)C2	112	100	89	.
Cc1ccc(Cn2c(C)c3cnn(CC(=O)NCC4CCCO4)c(=O)c3c2C)cc1 (configuration not stated)	106	76	80	2
CCc1ccc(C2Nc3ccccc3NC3=C2C(=O)CC(C)(C)C3)cc1 (configuration not stated)	.	91	88	4
O=C(O)CC(Sc1ncnc2sc3c(c12)CCCC3)C(=O)O (configuration not stated)	.	99	81	3
Cc1ccc2nc(Cl)c(/C=N/NC(=O)c3cccnc3)c(=O)n2c1	.	120	97	-37
COc1ccc(Cl)cc1S(=O)(=O)N1CCC(c2nnc(-c3ccc(C)cc3)o2)CC1	100&101	85	62	-18
Cc1ccc(NC(=O)Cn2ccn(Cc3ccc(Cl)cc3)c(=O)c2=O)cc1C	105	106	110	16
Cc1oc(-c2ccc(C(=O)Nc3cccc(C(F)(F)F)c3)cc2)nc1CSc1ccccc1	104	147	93	.
COc1ccc(C(c2c(C)[nH]c3ccccc23)N2CCOCC2)cc1 (configuration not stated)	106	1.3*	-1.2*	.
Cc1nc2ccn(Cc3ccco3)c(=O)c2cc1C(=O)NCc1ccccc1	97	97	87	.
COc1cc2c(C(=O)N3CCN(c4ccc(F)cc4)CC3)cn(CC(C)C)c(=O)c2cc1OC	101	91	92	-15
Cc1[nH]n(-c2ccccc2)c(=O)c1CC(=O)O	102	111	91	-1
COc1ccccc1/C(O)=C/C(=O)C(=O)Nc1sc2c(c1C#N)CCC2	101	95	93	.
CCN(CC)c1ccc(CNc2ccc(Br)cn2)cc1	100	115	95	-18
CCOC(=O)c1cccc(C(=O)OCC)n1	103	85	83	-16
CS(=O)(=O)N1CCc2cc(C(=O)N3CCCC3)ccc21	102	82	84	-21
COc1ccccc1N1CCN(C(=O)CN2C(=O)COc3ccc(S(=O)(=O)N4CCOCC4)cc32)CC1	100	93	83	-20
OCCNCc1ccc(-c2ccccc2F)o1	106	.	.	-9
CC(C)Cc1cc(-c2nn3c(-c4ccccn4)nnc3s2)n[nH]1	112	.	.	-18
CS(=O)(=O)CS(=O)(=O)Nc1cccc(OC(F)(F)F)c1	95	102	102	-3
COc1cccc(CNC(=O)CN(C)S(=O)(=O)c2ccc3c(c2)CC(C)N3C(C)=O)c1 (configuration not stated)	108	108	105	1
Cc1cc(C)cc(S(=O)(=O)Nc2cccc(-c3ccc(N4CCOCC4)nn3)c2)c1	108	131	108	.
Cc1ccc(C(=O)CSc2nc(C)cc(C)c2C#N)cc1	100	90	80	-21
CC(=O)N1c2ccccc2C(=O)C1Sc1nc(C)cc(C)n1 (configuration not stated)	104	91	85	-4
CSc1ccccc1NC(=O)C1COc2ccccc2O1 (configuration not stated)	106	98	94	-7

GIV-Gai inh, what is marked active above
compound | GIV-Gai inh | Sa growth inh second temp
N#CC1=C(N)SC(N)=C(C#N)C1c1ccc(O)cc1 | -74* | 54
COC(=O)C(C)N1C(=O)S/C(=C/c2ccc(N3CCCCCC3)o2)C1=O (configuration not stated) | -15* | 68

Following part
SMILES	GIV-Gai inh	Sa growth inh	Sa growth inh second temp	HCMV UL50-53 inh
COc1ccc(NC(=O)Cn2cc(C(=O)c3ccc(C)c(C)c3)c(=O)c3cc(OC)ccc32)cc1	101	96	87	-18
COC(=O)c1sc2cccc(F)c2c1S(=O)(=O)NCc1ccc(F)cc1	101	87	91	.
COc1ccc(OCCCn2c(C3CC(=O)N(c4ccc(F)cc4)C3)nc3ccccc32)cc1 (configuration not stated)	109	114	90	-4
Cc1ccc(-c2csc(=Nc3ccc(F)cc3)n2Cc2ccc3c(c2)OCO3)cc1C	101	113	102	-6
c1ccc(OCCSC2=NCCN2)cc1	102	107	97	-29
COc1ccc(CN2CCc3nc(Nc4ccccc4)ncc3C2)c(OC)c1OC	109	117	95	.

One compound at a time, from the list above.
COC(=O)C(C)N1C(=O)S/C(=C/c2ccc(N3CCCCCC3)o2)C1=O (configuration not stated) in the list: GIV-Gai inh = -15*; Sa growth inh = 95; Sa growth inh second temp = 68; HCMV UL50-53 inh = -47
CCn1cc(C(=O)NC2CCCC(C)C2C)c2cc(OC)c(OC)cc2c1=O (configuration not stated) in the list: GIV-Gai inh = 95; Sa growth inh = 112; Sa growth inh second temp = 85; HCMV UL50-53 inh = .
Cc1cccc2c1-c1sc(C(=O)N3CCN(c4ccc(Cl)cc4)CC3)cc1CO2 in the list: GIV-Gai inh = 103; Sa growth inh = 103; Sa growth inh second temp = 94; HCMV UL50-53 inh = .
